# High-throughput results from PubChem BioAssay.
# miR-21 reporter: qHTS Assay for Modulators of miRNAs and/orActivators of miR-21; HeLa miR-21 FLuc reporter, luciferase, 48 h; Potency, µM (doses to about 38.3 µM), without a hit: at the highest dose reporter change, positive = more light; 340,000 tested, under 10 active; active = well fitted rising curve with a large enough effect; inconclusive = small, poorly fitted or top-dose-only effect; inactive = no such curve, though single readings can be large or run the other way;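 further: % of control where 0% means no effect; miR-21 action dims this reporter so a rising signal means less miR-21 action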
#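 HeLa cells endogenously expressing miR-21, stably carrying CMV-driven firefly luciferase with a downstream miR-21 binding site, 2000 cells/well. Titrations up to approximately 40 uM, 48 hours; luciferase luminescence read.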
# GLA inh pH 4.5: qHTS Assay for Inhibitors of Human alpha-Galactosidase at pH 4.5 | AID 1467, 2008 | 230,000 tested, under 10 active | activity change, negative = inhibition, % at 105 µM | purified enzyme, 4-MU-alpha-Gal fluorescence, pH 4.5 | Alpha-galactosidase A (Homo sapiens), P06280; inconclusive = small, poorly fitted or top-dose-only inhibition, or a rising curve; inactive = flat fitted curve, though single readings scatter; no compound was filed as active;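 further: 0% = full activity with enzyme and -100% = basal without enzyme; dose as in the result columns while the protocol names 77 µM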
# Target sequence (P06280 whole entry, looked up): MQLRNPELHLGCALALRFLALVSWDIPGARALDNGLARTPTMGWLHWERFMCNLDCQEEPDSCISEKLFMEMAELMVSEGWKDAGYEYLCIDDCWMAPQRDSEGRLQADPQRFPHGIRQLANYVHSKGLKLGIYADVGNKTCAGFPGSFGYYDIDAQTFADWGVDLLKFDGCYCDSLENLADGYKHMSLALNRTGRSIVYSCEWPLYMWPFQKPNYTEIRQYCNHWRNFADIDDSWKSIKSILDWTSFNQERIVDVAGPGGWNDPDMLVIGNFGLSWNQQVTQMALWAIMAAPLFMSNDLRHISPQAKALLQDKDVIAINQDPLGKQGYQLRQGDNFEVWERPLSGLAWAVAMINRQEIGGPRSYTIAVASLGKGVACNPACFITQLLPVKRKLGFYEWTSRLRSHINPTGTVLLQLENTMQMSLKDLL
# Rango-impB inh: qHTS Assay for Inhibitors of Rango (Ran-regulated importin-beta cargo) - Importin beta complex formation; AID 540263, 2011; Importin subunit beta-1 (Homo sapiens), Q14974; 340,000 tested, 0.031% active; Rango CFP/YFP FRET sensor + importin beta, 45 min; Potency, µM (series often up to 92.2 µM), for the others: at the highest dose inhibition of complex formation; active = rising FRET ratio curve, often small or poorly fitted; inconclusive = mostly compound fluorescence or quenching in the first reads; inactive = flat curves in all reads;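 further: potency means the concentration at half of the fitted maximal effect; 0% = DMSO wells and 100% = buffer wells lacking importin beta; nearly all actives have a fitted effect of over 15% in size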
#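 Inhibition scored from the CFP 486 nm/YFP 530 nm FRET ratio 45 min after adding 0.125 microM importin beta to 50 nM Rango biosensor preincubated 5 min with compound (room temperature, PBS with DTT, Tween-20, BSA). No-importin wells as positive control.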
# Rango release inh: qHTS Assay for Inhibitors of RanGTP induced Rango (Ran-regulated importin-beta cargo) - Importin beta complex dissociation | Snurportin-1 (Homo sapiens) + GTP-binding nuclear protein Ran (Homo sapiens) + Importin … | Biochemical FRET Rango-importin beta, RanGTP-induced dissociation | Potency, µM (highest dose often 46.1 µM), without a hit: at the top dose activity change, negative = inhibition | 340,000 tested, 0.071% active | AID 540253, 2011; active means falling FRET ratio curve, often poorly fitted, with flat reads before Ran was added; inconclusive means other falling curves, or compound fluorescence or quenching; inactive means flat or rising ratio curve;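 further: potency means the concentration at half of the fitted maximal effect; % of control where 0% means no effect; nearly all actives have a fitted effect of over 45% in size; -100% = wells without RanGTP and RCC1; the record marks most hits as doubtful in a second field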
#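 Rango/importin beta premix (0.1/0.25 uM final), PBS + 1 mM DTT + 0.02% Tween-20 + 0.1% BSA; cpd 5 min RT; FRET pre-read; + RanGTP-RCC1 (0.6 uM Ran, 2 mM GTP, 0.2 uM RCC1); 45 min RT; FRET post-read, ex 430, em 486/530 nm.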
# * marks the source's active call; other numbers are inactive results; ? = inconclusive; / = no result given; & = joins results of further samples; [ ] = dose if it differs, or a comment. This is a subset. The share of hits here may be higher or lower than overall.
miR-21 reporter	GLA inh pH 4.5	Rango-impB inh	Rango release inh	canonical_smiles
3%	-9	-3.2%	1%	COc1ccc(N2CCN(C(=O)CNS(=O)(=O)c3ccc(C)cc3)CC2)cc1
-5%	-3	-2.4%	4%	Cn1c(SCC(=O)N2CCOCC2)nc(O)cc1=O
/	/	-2.4%	2%	O=C(Nc1ccc(OC(F)(F)F)cc1)C1CC(=O)N(Cc2ccco2)C1 (stereo unspecified)
-26%	/	-1.1%	-3%	C#CCN(CC=C)C(=O)c1ccc2nc(C3CCCCC3)oc2c1
0%	-8	0.6%	8%	CC[n+]1ccc(C(=O)NCc2ccccc2)cc1
1%	-13	2.2%	3%	CCCNC(=O)C1CNc2ccccc2O1 (stereo unspecified)
-7%	-3	-1.2%	-3%	C/C=C(\C)C(=O)N[C@@H](C)CN1C2=NC[C@H](C(C)C)N2C[C@H]1Cc1ccc(OC)cc1
-5%	3	-2.8%	10%	Cc1oc(-c2ccccc2)nc1CSc1nc2c(c(=O)[nH]1)CCC2
/	/	-0.3%	0%	Cc1cccc(NC(=O)c2ccc(S(=O)(=O)N(C)CC3CCCO3)cc2)c1C (stereo unspecified)
5%	-10	1.4%	-5%	COc1ccc2[nH]cc(CCNS(=O)(=O)c3ccccc3)c2c1
8%	-12	2.3%	0%	NC(=O)c1ccccc1NC(=S)NC(=O)CCc1ccccc1
0%	2	0.1%	20%	O=C(COc1ccc(S(=O)(=O)N2CCCC2)cc1Cl)NC1CCCC1
-52%	-4	-0.9%	3%	O=C(N/N=C/C(Cl)=C/c1ccccc1)c1ccccn1
-19%	?	-4.0%	-15%	CC1CCCN(CCCNC(=O)c2coc3nc4ccccc4nc23)C1 (stereo unspecified)
0%	4	-2.6%	-17%	Cn1c(=O)c2c(nc(NCCc3ccccc3)n2CC(=O)NCCc2ccccc2)n(C)c1=O
-11%	1	-5.5%	-5%	CN(Cc1ccccc1)S(=O)(=O)c1cccc2cccnc12
-4%	-10	-1.2%	-8%	Nc1ccc(N2CCOCC2)c(Cl)c1
14%	-1	5.1%	15%	Cc1onc(-c2c(Cl)cccc2Cl)c1C(=O)NNc1ccccc1
/	/	-3.1%	-2%	Cc1ccc(O)c(Cn2nnc3ccccc32)c1
0%	4	0.3%	0%	O=C(COc1ccccc1)Nc1nnc(-c2ccco2)o1
-13%	-10	-0.3%	13%	CCc1ccc(CN(C)CC(=O)Nc2ccccc2[N+](=O)[O-])cc1
-3%	/	-0.8%	6%	Cc1nc(C)n(C(C)CNC(=O)c2cccc(Br)c2)n1 (stereo unspecified)
-1%	4	1.0%	0%	Cc1cccc(COCCN2CCN(S(=O)(=O)c3ccccc3)CCC2=O)c1
-15%	-6	-1.2%	3%	S=C(Nc1ccc(Oc2ccccc2)cc1)NC1CCCC1
-5%	?	-2.7%	-5%	CNC(=O)C1CC(=O)N(CCc2ccc(OC)cc2)C(=Nc2ccc(OC)cc2)S1 (stereo unspecified)
/	/	6.2%	-6%	O=C(COc1ccc2ccc(=O)oc2c1)NC1CCCCC1
-40%	4	3.6%	14%	O=C(Nc1ccc(NC(=O)c2ccco2)cc1)c1ccc2c(c1)OCO2
-2%	1	-0.9%	-17%	CN(C)S(=O)(=O)c1cccc(C(=O)NCc2ccco2)c1
-1%	-8	?	-11%	CC1CCCN(S(=O)(=O)c2ccc(S(=O)(=O)N3CCCN(Cc4ccccc4)C3)cc2)C1 (stereo unspecified)
0%	3[21.1 µM]	/	/	CCN1CCN(C2CC(=O)NC2=O)CC1 (stereo unspecified)
-3%	/	-2.8%	-11%	Cc1ccc(S(=O)(=O)NNC(=O)Nc2ccc([N+](=O)[O-])cc2)c(C)c1
7%	-15	1.1%	4%	COc1ccc(CCNC(=O)COc2ccc(N(C)S(=O)(=O)c3ccc(C)cc3)cc2)cc1OC
-3%	/	3.1%	-2%	COc1cc(OC)c(C(=O)OCN2C(=O)c3ccccc3C2=O)cc1OC
/	/	-1.0%	0%	C=C(C)COC(=O)C1CC2OC2CC1C(=O)OCC(=C)C (stereo unspecified)
-2%	-12	-2.4%	-2%	COCCCNS(=O)(=O)c1ccc(Cl)c(C(F)(F)F)c1
/	/	?	6%	CC(C)(C)n1nc(Cc2cccc3ccccc23)c(C#N)c1N
0%	-1	3.3%	26%	Cc1ccc(C)c(S(=O)(=O)NCC(=O)Nc2sc3c(c2C(N)=O)CCC(C)C3)c1 (stereo unspecified)
-19%	2	-4.9%	-1%	COCCn1nnnc1C(C(C)C)N(Cc1cccnc1)Cc1cc2cc(OC)ccc2[nH]c1=O (stereo unspecified)
-1%	-13	1.0%	-19%	Nc1nc(-c2ccco2)nn1C(=O)c1ccc(F)cc1
10%	-1&-11	-4.6%	-14%	COC(=O)[C@@H]1C[C@@]2(O)[C@H](O)[C@H](O)[C@H](O)C[C@H]2N1Cc1cccc2ccccc12
-6%	-3	-2.5%	2%	Cc1nnc(SCC(=O)NC(C)(C)C)n1C1CCCCC1
0%	/	-2.7%	21%	Cc1ccc(-n2nc3c(=O)n(CC(=O)NC4CCCCC4)nc(C)c3c2C)cc1
0%	-4	3.6%	-2%	N#C/C(=C(/O)c1ccc([N+](=O)[O-])cc1)c1nc2ccccc2[nH]1
-6%	-3	-3.3%	12%	CNS(=O)(=O)c1ccc(N2CCCC2)c([N+](=O)[O-])c1
-2%	-6	2.3%	11%	COc1ccc(NC(=O)Cn2nc(C(F)(F)F)c3c2CCCC3)c(OC)c1
-1%	/	3.1%	5%	COC(=O)c1cc(CNC(=O)c2sccc2-c2ccccc2)ccc1OC
/	/	?	?	O=C(Nc1nc(-c2ccco2)c(-c2ccco2)s1)c1c(F)cccc1Cl
0%	1	-0.9%	14%	COc1cccc(-n2c(Cc3cc(=O)[nH]c(=O)[nH]3)nnc2SCc2cccnc2)c1
1%	-9	-1.7%	-7%	CCC(C)(C)NC(=O)COc1ccc(C(=O)c2ccccc2)cc1
-13%	-11	-0.2%	-16%	NCCCCCc1nnc(SCC(=O)Nc2cccc(Cl)c2)o1

# (next part)
miR-21 reporter	GLA inh pH 4.5	Rango-impB inh	Rango release inh	canonical_smiles
-9%	-7	-1.2%	?	CCCSC1=N/C(=C\C=C\c2ccco2)C(=O)S1
23%	/	-2.2%	13%	COc1ccc(CC(=O)N(Cc2ccccc2)c2ccccc2)cc1S(=O)(=O)N1CCOCC1
-1%	5	-0.5%	0%	COc1ccc(CC(NC(C)=O)C(=O)NC2CCN(c3c4c(nc5ncnn35)CCC4)CC2)cc1OC (stereo unspecified)
1%	/	0.6%	-15%	COc1ccc(CNC(c2ccccc2)c2ccc(Cl)cc2)cc1 (stereo unspecified)
-1%	0	-1.8%	-15%	Cc1cccc(C)c1NC(=O)N1C(C(=O)O)CSC1C(=O)O (stereo unspecified)
-10%	6	-2.6%	2%	CC(C)C(=O)Nc1nnc(SCC(=O)NCc2ccco2)s1
/	/	-1.2%	-8%	CCOC(=O)c1cn(CC)c2cc3c(cc2c1=O)OCO3
/	/	0.1%	2%	CC1CCC(NC(=O)CN2C(=O)NC3(CCCCC3C)C2=O)CC1 (stereo unspecified)
-40%	/	-2.6%	27%	CC(C)c1cc(C(=O)NNC(=S)NC2CCCCC2)cs1
-5%	/	-1.9%	-4%	CC(=O)Oc1ccccc1C(=O)N1CCN(S(=O)(=O)c2ccc3ccccc3c2)CC1
10%	/	-2.2%	-15%	O=C(Nc1cc(Cl)ccc1O)C1CC(c2c(F)cccc2Cl)=NO1 (stereo unspecified)
4%	-8	-0.7%	-20%	COC(=O)c1cc(C(=O)N2CCN(c3ccccc3OC)CC2)cc([N+](=O)[O-])c1
0%	-1	0.0%	3%	Cc1ccc2c(c1)C1(C)C(C(C)(C)N2C=O)C1(Cl)Cl (stereo unspecified)
2%	/	-1.1%	-4%	CC(C)CCN(Cc1ccco1)S(=O)(=O)c1csc(C(N)=O)c1
-29%	/	?	?	Cn1cccc1/C=N/NC(=O)c1cc2ccccc2cc1O
7%	/	2.9%	9%	COc1ccc(Cl)cc1NS(=O)(=O)c1ccc2c(c1)NC(=O)CCS2
9%	-24	-0.7%	1%	CC(C)CC(COCc1cccc(Cl)c1)N1CCN(C(=O)c2ccc(C(F)(F)F)cc2)CCC1=O (stereo unspecified)
/	/	?	2%	COCCNC(=O)c1cc(-c2ccccc2)n(CC2CC(c3ccc(OC)cc3)=NO2)n1 (stereo unspecified)
-2%	-12	-0.9%	10%	CC(Oc1ccc(Cl)cc1)C(=O)NCCCn1ccnc1 (stereo unspecified)
-9%	-4	-1.3%	10%	CN1CCN(c2ncnc3c2[nH]c2ccc(F)cc23)CC1
/	/	1.9%	3%	C=CCC[C@@H](Cc1ccc(F)cc1)C(=O)OC[C@H](Cc1c[nH]c2ccccc12)NC(=O)[C@@H](CC=C)CC(=O)N(CCO)Cc1ccccc1
0%	1	-4.6%	-11%	N#CC1=C(N)N(c2ccc(Cl)c(Cl)c2)C(=O)C1
-5%	/	1.1%	-16%	Cc1ccc(C(=O)C2=C(O)C(=O)N(Cc3cccnc3)C2c2ccc(Cl)c(Cl)c2)o1 (stereo unspecified)
-1%	-7	0.7%	-2%	CC(C)OC(=O)C1C(=O)CC(C)(O)C(C(=O)OC(C)C)C1c1ccc(F)cc1 (stereo unspecified)
0%	-2	1.0%	-5%	COC(=O)c1cccc(C(=O)N2CCCC(C(=O)c3cc(F)ccc3F)C2)c1 (stereo unspecified)
-2%	-18	0.5%	0%	CN(CC(=O)Nc1cccc2ccccc12)C(=O)/C=C/c1cccs1
-13%	2	0.2%	0%	CC(C)NCCCOc1ccc(Cl)cc1Br
-4%	-2	-1.5%	-15%	COCC(=O)Nc1cc([N+](=O)[O-])ccc1OC
-3%	-1	-0.9%	-5%	CCCSc1nc(SCC(=O)NCc2ccccc2)c2c3c(sc2n1)COC(C)(C)C3
/	/	1.5%	15%	O=C(NNC(=O)C1CCN(S(=O)(=O)c2ccccc2C(F)(F)F)CC1)c1ccccc1O
